V. cholerae QS = Vibrio cholerae quorum sensing activators, luminescence (AID 686977); V. cholerae quorum sensing reporter, luminescence, 6 h; higher luminescence means a stronger effect; most inactives read 0; one-dose luminescence at 50 µM unless noted; EC50 in µM for titrated hits; 9,400 tested, under 10 active;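 active = light above mean plus 3 SD and confirmed in a dose series; inconclusive = above that limit without a clear retest; inactive = below it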;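 note: raw light counts without normalisation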
* marks the source's active call; other numbers are inactive results; u = inconclusive; [ ] = remark or other dose. An excerpt; count on the stated rates, not on these rows.

SMILES	V. cholerae QS
O=C(CSc1nnc(SCc2ccc(Cl)cc2)s1)N1CCOCC1	40
Oc1ccc(F)cc1-c1cc(-c2ccc3c(c2)OCCO3)n[nH]1	0
COc1ccc(C(=O)NC2CCCCCC2)cc1S(=O)(=O)Nc1ccc(Br)cc1	0
COc1ccc(C(=O)Nc2cc3c(cc2C#N)OCO3)cc1S(=O)(=O)N1CCN(C)CC1	u
CCCc1nnc2n1N=C(c1ccc(OC)c(OC)c1)CS2	0
COc1cc(OC)cc(OCC(O)Cn2cnc(-c3ccccc3)c2)c1 (stereo not drawn)	0
O=[N+]([O-])c1ccc(NNC(=S)Nc2ccccc2)cc1	0
Cc1ccc(NC(=O)c2cc(-c3ccc(C)o3)nc3ccccc23)nc1	0
CCCCCn1c(N2CCN(Cc3ccccc3)CC2)nc2c1c(=O)[nH]c(=O)n2C	40
C[N+](C)(C)CCOC(=O)C1(c2ccccc2)CCCC1	0
O=C(CN1C(=O)c2cccc3cccc1c23)NCc1ccncc1	0
CCc1ccc2[nH]c(=O)c(CN(Cc3ccccc3)Cc3nnnn3Cc3ccco3)cc2c1	0
CS(=O)(=O)Nc1ccccc1C(=O)NCc1ccco1	0
CC(=O)/C(=N/Nc1cccc(C)c1)N1CCOCC1	0
CCC(C)NC(=O)CC1Oc2ccc(Cl)cc2NC1=O (stereo not drawn)	40

Two records picked at random from the list so far:
SMILES	V. cholerae QS
C[N+](C)(C)CCOC(=O)C1(c2ccccc2)CCCC1	0
O=C(CSc1nnc(SCc2ccc(Cl)cc2)s1)N1CCOCC1	40

(listing goes on)
SMILES	V. cholerae QS
COCCN(CCOC)Cc1c(C)[nH]c2ccccc2c1=O	200
CC(=O)Nc1cc(-c2nn3c(C)nnc3s2)ccc1C	0
CCOC(=O)c1cc(OC(=O)c2ccccc2OC)n(-c2ccccc2)n1	40
Cc1ccc(CCP(=O)(O)CN2CCOCC2)cn1	0
O=C(Nc1ccc(Oc2ccccc2)cc1)c1cnc2n(c1=O)CCS2	0
COc1ccc(C(=O)N2CCN(Cc3cc(OC)c(O)c(OC)c3)CC2)cc1OC	0
Cn1c(=O)c2c(nc(CN3CCN(Cc4ccccc4)CC3)n2Cc2ccccc2)n(C)c1=O	0
CCOC(=O)C1C(=O)CC(C)(O)C(C(=O)OCC)C1c1cc(Br)ccc1OC (stereo not drawn)	40
Cc1nnc(SCc2cnc(-c3ccccc3)o2)[nH]c1=O	40
COc1ccccc1-n1c(SCC(=O)Nc2ccc(F)cc2)nc2c(c1=O)SCC2	40
CCC(C)[C@H]1O[C@]2(C=C[C@@H]1C)C[C@@H]1C[C@@H](C/C=C(\C)C(O[C@H]3C[C@H](OC)C(O[C@H]4C[C@H](OC)[C@@H](O)[C@H](C)O4)[C@H](C)O3)[C@@H](C)/C=C/C=C3\CO[C@@H]4[C@H](O)C(C)=C[C@@H](C(=O)O1)[C@]34O)O2 (stereo partly drawn)	280[10 µg/mL]
Cc1ccc2c(c1)NC(=O)C(CC(=O)NCCCN1CCCC1=O)O2 (stereo not drawn)	0
Cc1ccnc(SCCn2c(N3CCN(Cc4ccccc4)CC3)nc3c2c(=O)[nH]c(=O)n3C)n1	40
O=C(c1ccco1)N1CCN(c2cc(C(F)(F)F)nc3ncnn23)CC1	0
CCc1nc(SCC(=O)NCc2ccccc2)c2c(=O)n(C)c(=O)n(C)c2n1	0
Cc1ccc(S(=O)(=O)NC(C)C(c2cccs2)N2CCN(c3ccccc3)CC2)cc1 (stereo not drawn)	280
CCOc1ccc(C2C=C(c3ccc(F)cc3)Nc3ncnn32)cc1 (stereo not drawn)	40
Cc1ccc(OCc2ccc(C(=O)Nc3nc4ccccc4n3Cc3ccccc3)o2)c([N+](=O)[O-])c1	0
C/C(=N/O)c1cc(C(C)(C)C)c(O)c(C(C)(C)C)c1	0
CCOc1ccc(OCC)c(NC(=O)c2[nH]c(C)c(C(C)=O)c2C)c1	40
Cc1nnc(-c2cnn(C)c2N)n1Cc1ccccc1	40
CCc1nnc(NC(=O)C2Cc3ccccc3C(=O)O2)s1 (stereo not drawn)	40
Nc1ccc(S(=O)(=O)N2CCCc3ccccc32)cc1	u
CC1CCC(C(C)C)C(OCC(O)CN2CCOCC2)C1 (stereo not drawn)	0
Cc1ccc(S(=O)(=O)n2nc(OC(=O)C3CCCCC3)cc2N)cc1	160
CCOC(=O)CCc1c(C)nc2c(c(C)nn2C(C)(C)C)c1C	0
CCOC(=O)C1=C(C)NC(C)=C(C(=O)OCC)C1c1cc(N)ccc1OC(F)F	40
O=C(NCCCN1CCCCC1)c1ccc2c(=O)n(CCc3ccccc3)c(=O)[nH]c2c1	0
COc1ccc(-c2ccc(N)[n+](CCCC(=O)O)n2)cc1	0[10 µg/mL]
COCCn1c(C)c(C(=O)O)sc1=S	0

4 consecutive records from above:
SMILES	V. cholerae QS
Cc1ccc(S(=O)(=O)NC(C)C(c2cccs2)N2CCN(c3ccccc3)CC2)cc1 (stereo not drawn)	280
CCOc1ccc(C2C=C(c3ccc(F)cc3)Nc3ncnn32)cc1 (stereo not drawn)	40
Cc1ccc(OCc2ccc(C(=O)Nc3nc4ccccc4n3Cc3ccccc3)o2)c([N+](=O)[O-])c1	0
C/C(=N/O)c1cc(C(C)(C)C)c(O)c(C(C)(C)C)c1	0

Part of the list above in a different format:
| molecule | V. cholerae QS |
| --- | --- |
| COCCn1c(C)c(C(=O)O)sc1=S | 0 |
| Cc1ccc(S(=O)(=O)NC(C)C(c2cccs2)N2CCN(c3ccccc3)CC2)cc1 (stereo not drawn) | 280 |
| CCOc1ccc(C2C=C(c3ccc(F)cc3)Nc3ncnn32)cc1 (stereo not drawn) | 40 |

New compounds follow
SMILES	V. cholerae QS
CCOC(=O)c1cnc(SCC(=O)Nc2nnc(CC)s2)nc1N	0
COc1cc(C=O)ccc1OCc1c(C)noc1C	0
C[C@]12CC[C@@H](O)C[C@@H]1CC[C@@H]1[C@@H]2CC[C@]2(C)C(=O)CC[C@@H]12	0[10 µg/mL]
CC(C)c1nc(SCc2ccccn2)c2c(=O)n(C)c(=O)n(C)c2n1	40
O=C(CSc1ccccc1C(=O)NCCCN1CCCC1=O)NCc1ccco1	0
Oc1ccc(N2CCN(c3ncnc4sc5c(c34)CCC5)CC2)cc1	0
COC1=CC(=O)C[C@@H](C)[C@]12Oc1c(Cl)c(OC)cc(OC)c1C2=O	0[10 µg/mL]
COc1nc2c(s1)C(=O)NCCC2	320
O=C(COC(=O)CCc1ccc(S(=O)(=O)N2CCCCC2)cc1)Nc1ccc2c(c1)OCO2	240
CCC(=O)Nc1ccc(Oc2ccc3c(c2)C(=O)N(c2ccc(O)cc2)C3=O)cc1	40
Cc1cccc(NC(=O)C2CCN(S(=O)(=O)c3cccs3)CC2)c1	40
CCn1cc(C(=O)O)c(=O)c2cc(F)c(N3CCNCC3)cc21	0[10 µg/mL]
C/C(=N\NC(=S)NC(C)C)c1ccc(-n2ccnc2)cc1	0
CCOn1c(=O)c(-c2cccs2)[n+]([O-])c2ccccc21	80
CC(CN1c2ccccc2Sc2ccccc21)N(C)C (stereo not drawn)	0[10 µg/mL]
Cc1onc(-c2ccccc2Cl)c1C(=O)Nc1nnc(-c2ccc(Cl)cc2Cl)s1	0
Cn1c(=O)[nH]c(=O)c2c1nc(NCc1ccccc1)n2CCCc1ccccc1	40
COc1cc(/C=N/NC(=O)CCc2c(C)n[nH]c2C)ccc1O	0
CCC(=O)NCCn1ccc2ccccc21	40
COC(=O)c1c(N)n(-c2ccc(NC(C)=O)cc2)c2nc3ccccc3nc12	40
CCOC(=O)[C@H](CCc1ccccc1)N[C@@H](C)C(=O)N1C(C(=O)O)C[C@@H]2CCC[C@@H]21 (stereo partly drawn)	0[10 µg/mL]
Cc1ccc(C)c(NC(=S)NC(NC(=O)Cc2ccccc2)C(Cl)(Cl)Cl)c1 (stereo not drawn)	0
C=CCc1cc(C=O)cc(OC)c1OCc1c(Cl)cccc1Cl	0
O=C(Nc1cccc(Cl)c1N1CCCCC1)c1ccc2c(c1)OCCO2	0
CCCCn1c(N)c(-c2nc3ccccc3s2)c2c([N+](=O)[O-])nn(CC)c(=O)c21	0
O=C(CCc1c[nH]c2ccccc12)NC1CC1	0
CCn1c(CNC(=O)COC)nc2ccccc21	0
Cc1ccc(OCc2nnc(SCc3cc(=O)[nH]c4ccccc34)o2)cc1	0
Fc1ccccc1N1CCN(Cc2nc(-c3ccccc3)no2)CC1	40
CCOC(=O)c1ccc(N2CSC3=C(C#N)C(c4cccs4)CC(=O)N3C2)cc1 (stereo not drawn)	0

Gathered by group: those above with two or more sulfur atoms.
SMILES	V. cholerae QS
O=C(CSc1nnc(SCc2ccc(Cl)cc2)s1)N1CCOCC1	40
COc1ccccc1-n1c(SCC(=O)Nc2ccc(F)cc2)nc2c(c1=O)SCC2	40
Cc1ccc(S(=O)(=O)NC(C)C(c2cccs2)N2CCN(c3ccccc3)CC2)cc1 (stereo not drawn)	280
COCCn1c(C)c(C(=O)O)sc1=S	0
CCOC(=O)c1cnc(SCC(=O)Nc2nnc(CC)s2)nc1N	0
Cc1cccc(NC(=O)C2CCN(S(=O)(=O)c3cccs3)CC2)c1	40
CCOC(=O)c1ccc(N2CSC3=C(C#N)C(c4cccs4)CC(=O)N3C2)cc1 (stereo not drawn)	0

Next section:
SMILES	V. cholerae QS
Cc1ccc(OCCCC(=O)Nc2ccc(S(=O)(=O)Nc3cc(C)on3)cc2)cc1	0
CC(=O)Oc1ccccc1C(=O)Oc1ccccc1C(=O)O	0[10 µg/mL]
COc1ccc(S(=O)(=O)N2CCC(C(=O)N3CCCCC3)CC2)cc1Cl	0
CC(C)CC(=O)Nc1ccc(S(=O)(=O)NCc2ccco2)cc1	0
CCn1c(COc2ccc(Cl)cc2)nnc1SCc1ccc(C#N)cc1	0
Cc1c(NC(=O)C2CCCCN2S(=O)(=O)c2ccc(Cl)cc2)c(=O)n(-c2ccccc2)n1C (stereo not drawn)	40
CN1C2CCC1CC(OC(=O)C(CO)c1ccccc1)C2 (stereo not drawn)	0[10 µg/mL]
COc1ccc(OCCN2CCN(C3CC(=O)N(CCC(C)C)C3=O)CC2)cc1 (stereo not drawn)	u
CCOC(=O)N1CCN(C(=O)CSc2nc3c(cnn3-c3ccccc3)c(=O)[nH]2)CC1	40
COc1ccc(C2CCCN2C(=O)Nc2ccc(Cl)cc2)cc1OC (stereo not drawn)	40
CC(C)Oc1ccc(NC(=O)Oc2ccccc2)cc1	40
NC(N)=NC(=O)c1nc(Cl)c(N)nc1N	0[10 µg/mL]
O=C(Nc1cccc(S(=O)(=O)N2CCOCC2)c1)c1ccco1	0
CC(C)(C)NC(=O)CSc1nnc(CN2CCCCCC2=O)n1-c1ccccn1	40
COc1ccc(N2CCN(Cc3cc4c(cc3O)CCC4)CC2)cc1	0
COc1ccc(S(=O)(=O)N(CC(=O)Nc2cccnc2)c2ccccc2OC)cc1	0
CSc1nc(N(CCO)CCO)c2sc3nc(-c4ccco4)c4c(c3c2n1)CCC4	0
O=C(NCCN1CCN(c2ccccc2)CC1)C1CCCN(S(=O)(=O)c2cnc[nH]2)C1 (stereo not drawn)	0
CCNc1nc2c(c(=O)[nH]c(=O)n2C)n1CC(C)C	0
Cc1ccccc1N1C(=O)c2ccccc2C1Nc1cccnc1 (stereo not drawn)	0
COCCNC(=O)CS(=O)Cc1nc(-c2ccc(Cl)cc2)oc1C (stereo not drawn)	40
O=C(O)c1cnn2c1NC(c1cccs1)CC2C(F)(F)F (stereo not drawn)	40
O=c1[nH]cnc2sc(-c3ccccc3)cc12	0
Cc1ccccc1NC(=O)c1ccc(S(=O)(=O)N(C)C)cc1	0
Nc1nc(SCC(=O)c2ccc(Oc3ccccc3)cc2)n[nH]1	0
Cc1nn(C)c(C)c1S(=O)(=O)N(CC(=O)Nc1nccs1)c1ccc(C(C)C)cc1	0
Cc1ccc(C2=CC(c3ccc(N(C)C)cc3)n3nnnc3N2)cc1 (stereo not drawn)	0
COC(=O)[C@H]1[C@H]2C[C@@H]3c4[nH]c5cc(OC)ccc5c4CCN3C[C@H]2C[C@@H](OC(=O)/C=C/c2cc(OC)c(OC)c(OC)c2)[C@@H]1OC	0[10 µg/mL]
COC(=O)CCCC[C@H]1SC[C@H]2NC(=O)N[C@]21O	0
O=c1ccnc(SCn2nnc3ccccc3c2=O)[nH]1	40
Cc1ccsc1-c1nc(CSCC(=O)NCc2ccc3c(c2)OCO3)c(C)o1	0
Cc1cc(C)n(CC(=O)n2nc(C)cc2C)n1	0
O=S(=O)(NCCCc1ccccc1)c1ccccc1	40
